Screens deposited in PubChem BioAssay by Johns Hopkins Ion Channel Center.
KCNQ2 pot – enhances the rat KCNQ2 potassium channel; B-score at 10 µM; O88943; CHO-K1 KCNQ2, FluxOR thallium flux fluorescence; hits give high values; 0.54% of 310,000 active;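 active = fluorescence ratio B-score at least 3 SD of library B-scores, with initial fluorescence B-score within 3 SD, cut at about 5.3 in these data; same plate scores as AID 2156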;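 note: B-score of peak minus minimum over baseline fluorescence ratio after K+ and Tl+ stimulus; positive B-score means potentiation of KCNQ2 with more thallium influx and brighter signal; only the inactives scoring about 0 or higher are listed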
Target sequence (O88943 whole entry, looked up): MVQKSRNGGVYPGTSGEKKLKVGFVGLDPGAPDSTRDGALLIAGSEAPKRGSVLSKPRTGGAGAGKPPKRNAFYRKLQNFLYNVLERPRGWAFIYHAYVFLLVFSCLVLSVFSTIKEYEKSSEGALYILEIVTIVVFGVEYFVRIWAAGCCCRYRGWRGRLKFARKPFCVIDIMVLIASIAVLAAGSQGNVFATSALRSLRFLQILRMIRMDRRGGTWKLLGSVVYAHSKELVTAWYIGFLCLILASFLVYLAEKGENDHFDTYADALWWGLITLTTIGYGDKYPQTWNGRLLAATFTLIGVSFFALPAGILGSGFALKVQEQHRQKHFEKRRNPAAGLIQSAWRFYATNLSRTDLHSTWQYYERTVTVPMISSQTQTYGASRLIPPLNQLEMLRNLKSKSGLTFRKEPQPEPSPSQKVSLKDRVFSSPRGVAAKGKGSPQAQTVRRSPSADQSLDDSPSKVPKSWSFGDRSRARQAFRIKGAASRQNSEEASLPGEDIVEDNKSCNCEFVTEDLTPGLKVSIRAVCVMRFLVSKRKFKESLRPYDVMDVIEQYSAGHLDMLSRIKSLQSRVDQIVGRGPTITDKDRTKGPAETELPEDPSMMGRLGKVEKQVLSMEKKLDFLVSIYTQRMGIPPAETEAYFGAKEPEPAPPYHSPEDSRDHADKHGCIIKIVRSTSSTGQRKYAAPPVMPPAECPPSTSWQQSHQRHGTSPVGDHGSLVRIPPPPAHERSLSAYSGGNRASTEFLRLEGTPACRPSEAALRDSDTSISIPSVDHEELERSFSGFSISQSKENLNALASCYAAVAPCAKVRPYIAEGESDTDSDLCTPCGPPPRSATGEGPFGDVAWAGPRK
KCNQ2 pot baseline – also measured in KCNQ2 pot; calls as there; B-score; compound at 10 µM; measured here: initial fluorescence intensity artifact check;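 brightness before thallium and not channel activity; 0 = typical well and far values either way flag optical interference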
* = called active by the depositor; nt = not tested or not shown. Not all compounds are listed, so the mix of outcomes need not match the whole.

nr	structure	KCNQ2 pot baseline	KCNQ2 pot
1	CN=C(Nc1cccc(OC)c1)SC1CC(=O)N(c2ccc(C(=O)O)cc2)C1=O (centres undefined)	-1	0.35
2	COc1ccc(S(=O)(=O)N2CCC(C(=O)N[C@@H](C)C(=O)NC3CC3)CC2)cc1	0.28	0.59
3	CN(C(=O)COC(=O)c1cc(-c2ccccc2Cl)nc2ccccc12)C1CCS(=O)(=O)C1 (centres undefined)	-2.2	0.47
4	CN1C(=O)CS(=O)c2ccc(C(=O)NC3CC3)cc21 (centres undefined)	-1.9	0.28
5	Cc1ccc(-n2c(SCC(=O)N3CCOCC3)nnc2-c2ccncc2)cc1	-1.8	0.54
6	Cc1cc(OCC(=O)Nc2ccc3c(c2)OCCO3)ccc1Cl	-1.1	0.81
7	C/C(=N/NC(=O)CNC(=O)CCc1ccccc1)c1ccc(Cl)c(Cl)c1	0.22	1.1
8	CC(C)n1c(NCc2cc(Cl)ccc2O)nc2ccccc21	1.1	0.07
9	CC(C)(C)C(=O)NCCN1CCN(C(=O)C(C)(C)C)CC1	-1.7	0.52
10	O=c1c(C(c2ccccc2)c2c(O)nc3n(c2=O)CCS3)c(O)nc2n1CCS2	-1.6	1.1
11	N#Cc1c(-c2ccccc2Cl)noc1/C=C/Nc1ccc(C(=O)O)cc1	0.51	0.28
12	Cc1ccnc(-n2c(CCN3C(=O)c4ccccc4C3=O)nc3ccccc3c2=O)c1	-0.44	0.5
13	Cc1ccc(C(=O)Nn2c(O)c(C=C3N=c4ccccc4=N3)sc2=S)cc1	-1.1	0.06
14	Cc1ccccc1-n1ncc2c1CC(C)(C)CC2NC(=O)CCN1CCCCC1=O (centres undefined)	-0.57	0.08
15	COc1ccc(NS(=O)(=O)c2ccc(N3CCCC3)c(NC(=S)Nc3cccc(C)c3C)c2)cc1	0.86	0.34

Continued.
nr	structure	KCNQ2 pot baseline	KCNQ2 pot
16	COc1cc(OC)c(NC(=O)CN(C)S(=O)(=O)c2ccc3[nH]c(=O)oc3c2)cc1Cl	0.91	0.79
17	CCOC(=O)CC1CCCCN1C(=O)c1ccc2nc(CCOC)oc2c1 (centres undefined)	0.25	0.6
18	Cn1cc(-c2cc(C(=O)O)on2)cn1	0.36	0.03
19	CCOC(=O)N1CCC(N2CC34C=CC(O3)C(C(=O)Nc3ccc(C)cc3)C4C2=O)CC1 (centres undefined)	-0.29	1.5
20	O=C(c1cccc([N+](=O)[O-])c1)N1CCN(S(=O)(=O)N2CCCCC2)CC1	-0.12	0.21
21	O=C(Nc1ccccc1)c1ccc[nH]1	-0.57	1.6
22	CC(NC(=O)c1cc2ccccc2o1)c1cccs1 (centres undefined)	-0.17	0.48
23	Cc1[nH]nc(Nc2ccc(O)cc2)c1[N+](=O)[O-]	1.2	0.4
24	COCc1cc(C)nc2sc(C(=O)NN)c(-n3cccc3)c12	0.01	0.09
25	Cc1c(CN2CCC(CO)(Cc3ccccc3)CC2)c2ccccc2n1C	-0.47	1.1
26	O=C(O)c1ccccc1C(=O)c1ccc(-c2ccccc2)cc1	-0.34	0.15
27	O=C(O)CCCCCNc1nc(=S)[nH]c2ccccc12	0.02	0.96
28	COc1cccc(-c2coc3cc4oc(=O)c(CC(=O)O)c(C)c4cc23)c1	0.07	1.1
29	O=C(CSc1nc(O)cc(=O)[nH]1)N1c2ccccc2CCc2ccccc21	-0.02	1.8
30	CCc1ccc(/C=C2\SC(=S)N(CCCC(=O)Nc3ccccc3C(=O)O)C2=O)cc1	-0.5	0.01

(next part)
nr	structure	KCNQ2 pot baseline	KCNQ2 pot
31	COc1ccc(S(=O)(=O)N2CCCCC2)cc1C(=O)N1CCCCCC1	0.04	0.43
32	CCCCOC(=O)Nc1nc2ccc([N+](=O)[O-])cc2s1	-2.5	1.6
33	CCOC(=O)CC1(C)OCC(C[N+]2(C)CCCCC2)O1 (centres undefined)	4.2	0.19
34	O=C(NCC(=O)N(c1cccnc1)C(C(=O)NCc1ccco1)c1ccccc1)c1ccco1 (centres undefined)	-0.63	1.3
35	CCOc1cc(CNC(C)C)c(Cl)cc1OCC(=O)NCCc1ccccc1	0.35	1.9
36	COc1ccc(-c2cc(=O)oc3c(C)c(OCC(=O)N[C@@H](Cc4ccc(O)cc4)C(=O)O)ccc23)cc1	-1.3	1.8
37	CCNS(=O)(=O)c1ccc(NC(=O)Nc2cccc(C(F)(F)F)c2)cc1	-1.5	0.59
38	O=C(NCCCN1CCCC1=O)c1cccc(NS(=O)(=O)c2ccccc2)c1	0.35	0.23
39	COC(=O)[C@]1(Cc2ccccc2)N[C@H](c2ccc(-c3cc(C(C)=O)cs3)cc2)[C@@H]2C(=O)N(C)C(=O)[C@@H]21	-1.4	0.03
40	O=C(NCc1cccc(Br)c1)C1CC(c2cc(C(F)(F)F)cc(C(F)(F)F)c2)=NO1 (centres undefined)	1.6	1
41	Cc1ccc(N(CC(=O)N2CCOCC2)S(C)(=O)=O)cc1	3	1.7
42	CC(=O)NCCc1nc2ccccc2n1CCCCOc1ccccc1	-0.25	0.95
43	Cc1ccc(CN2C(=O)C(C)Oc3ccccc32)cc1 (centres undefined)	2.4	0.29
44	O=C(Cn1cnc2ccccc2c1=O)N1CCc2ccccc2C1	0.56	0.14
45	CCN(CC)S(=O)(=O)c1cc(OC)ccc1N=Nc1ccc(O)c2ncccc12	-1.6	2

Structures above that have two or more sulfur atoms:
nr	structure	KCNQ2 pot baseline	KCNQ2 pot
10	O=c1c(C(c2ccccc2)c2c(O)nc3n(c2=O)CCS3)c(O)nc2n1CCS2	-1.6	1.1
13	Cc1ccc(C(=O)Nn2c(O)c(C=C3N=c4ccccc4=N3)sc2=S)cc1	-1.1	0.06
15	COc1ccc(NS(=O)(=O)c2ccc(N3CCCC3)c(NC(=S)Nc3cccc(C)c3C)c2)cc1	0.86	0.34
30	CCc1ccc(/C=C2\SC(=S)N(CCCC(=O)Nc3ccccc3C(=O)O)C2=O)cc1	-0.5	0.01

Additional structures follow:
nr	structure	KCNQ2 pot baseline	KCNQ2 pot
46	CCC1(C)Cc2ccccc2C(=S)N1 (centres undefined)	-1.5	0.16
47	Cc1ccc(S(=O)(=O)Nc2ccc3[nH]c(=O)[nH]c3c2)c(C)c1	0.4	0.2
48	O=C(O)C(Cc1ccccc1)n1cccc1 (centres undefined)	1.4	0.85
49	Cc1onc(-c2ccccc2)c1C(=O)Nc1nnc(COc2ccc(Cl)cc2)s1	-1.9	1.8
50	CC(C)(C)c1ccc(C(=O)NC(=S)Nn2cnnc2)cc1	1.1	0.83
51	CCOC(=O)Nc1nnc(-c2ccc(OC)c(OC)c2)s1	0.72	1.1
52	CCc1ccc(CNC(=O)C2CCCN(c3nn4c(=O)cc(C)nc4s3)C2)cc1 (centres undefined)	0.94	0.75
53	CC1=[N+](CC(=O)NC(C)(C)C)CCc2ccccc21	0.41	0.09
54	COC(=O)C1=C(CN2CCSCC2)NC(=O)NC1c1cc(C)ccc1C (centres undefined)	0.44	0.34
55	C=CCn1c(=O)c(CCC(=O)Nc2ccc(N3CCOCC3)cc2)nc2cc(C(F)(F)F)ccc21	-0.04	0.32
56	NC(=O)COc1ccc(=O)n(-c2ccccc2)n1	-0.41	3.2
57	COc1ccc(C(=O)NCC(=O)N=Nc2c(O)n(C)c3ccccc23)cc1OC	-1.8	0.17
58	CCCCc1c(O)nc(SCC(=O)O)[nH]c1=O	0.05	1
59	Cc1cc(C(=O)N/N=C/c2c3ccccc3cc3ccccc23)n[nH]1	0.82	0.02
60	COc1ccc(N(C(=O)CNC(=O)c2ccco2)C(C(=O)NCC2CCCO2)c2ccccc2)cc1Cl (centres undefined)	-2.3	0.19

Later entries.
nr	structure	KCNQ2 pot baseline	KCNQ2 pot
61	Cc1ccc(N2CC(C(=O)Nc3nnc(SCC(=O)Nc4cc(C)on4)s3)CC2=O)cc1 (centres undefined)	-1.7	2.8
62	COc1cccc(C(=O)Nc2ccc(C(=O)c3ccncc3)cc2)c1	1.5	2.5
63	O=[N+]([O-])c1ccc(C(O)CSC(=S)N2CCCCC2)cc1 (centres undefined)	-0.03	0.14
64	O=C(c1ccccc1NS(=O)(=O)c1cccc([N+](=O)[O-])c1)N1CCOCC1	-1.1	0.73
65	CN(C)c1ccc(/C=N/NC(=O)CN2CCN(c3ccc(F)cc3)CC2)cc1	2.5	0.37
66	Fc1c(F)c(F)c(CSc2nc3ccccc3[nH]2)c(F)c1F	2.3	0.42
67	Cc1cnc(C(=O)OCC(=O)Nc2cccc(S(=O)(=O)N3CCCCC3)c2)cn1	-1.9	0.02
68	COc1nc(N(C)C)nc(N(C#N)S(=O)(=O)c2ccc(C)cc2)n1	1	0.01
69	COc1ccc(C(=O)NCCNc2ccc([N+](=O)[O-])cn2)cc1	0.07	0.05
70	Cn1nnnc1SCCNCc1ccccc1F	3.3	0.66
71	CCOC(=O)N1CCC(Nc2ccc(N3C(=O)C4CCCCC4C3=O)cc2[N+](=O)[O-])CC1 (centres undefined)	0.08	1.7
72	O=C(NCC(=O)N1CCCCCCC1)c1ccc(Br)o1	-2.7	1.3
73	Cc1nc(CCNC(=O)Cc2ccccc2)cs1	0.96	0.07
74	CCOC(=O)c1ccc(S(=O)(=O)N2CCC(N3CCCCC3)CC2)cc1	-0.67	0.18
75	NC(=O)C1CCN(C(=O)Nc2csc3ccccc23)CC1	-0.43	0.16

(list continues)
nr	structure	KCNQ2 pot baseline	KCNQ2 pot
76	Cc1nn(C)cc1C(=O)/C=C/c1ccc([N+](=O)[O-])cc1	0.65	0.01
77	CN1CCN(C(=O)c2ccc3c(=O)n(Cc4ccc(Cl)cc4)c(=S)[nH]c3c2)CC1	1.3	2.9
78	O=C(NNC(=O)c1cccc(C(F)(F)F)c1)c1ccncc1	-0.8	0.07
79	N#CC1=C(N)Oc2n[nH]c(CSc3ccccc3)c2C12C(=O)Nc1ccccc12 (centres undefined)	0.88	0.78
80	CCCCOC(=O)C1=C(C)Nc2ncnn2C1c1ccc(OCC)c(OC)c1 (centres undefined)	-0.74	0.17
81	O=C(CSc1ncccn1)N1CCN(C(=O)CSc2ncccn2)CC1	-0.32	0.57
82	Cc1cc(-c2nnc(CCC(=O)NC(C)c3ccccc3Cl)o2)no1 (centres undefined)	-1.1	1.8
83	CCC(C)C(NC(=O)OC(C)(C)C)C(=O)NC(C(=O)N1CCCC1C(N)=O)C(C)CC (centres undefined)	0.3	0.5
84	Cc1cc(C)c2sc(NC(=O)c3ccc([N+](=O)[O-])o3)nc2c1	-0.17	3.7
85	Cc1cc(NC(=O)C2(c3ccccc3)CCCC2)no1	-1.1	1.9
86	COc1ccccc1NS(=O)(=O)c1cccc(C(=O)N/N=C/c2ccc(N3CCOCC3)cc2)c1	-2.1	0.11
87	COC(=O)c1ccc(Cl)c(NC(=O)CN2CCN(Cc3ccccc3)CC2)c1	0.7	0.76
88	COc1ccc2oc(C(=O)OCC(=O)N3CCN(c4ccccc4)CC3)c(C)c2c1	-0.99	0.4
89	Cc1ccc(C(=O)COC(=O)c2cnccn2)cc1	0.48	0.1
90	COc1cc(Br)cc(Br)c1OCC(=O)N/N=C/c1c(C)n(C)n(-c2ccccc2)c1=O	0.08	1.4

Two entries from above, with two lines to a compound:
Each structure is followed by: KCNQ2 pot baseline	KCNQ2 pot
[82] Cc1cc(-c2nnc(CCC(=O)NC(C)c3ccccc3Cl)o2)no1 (centres undefined)
    -1.1	1.8
[81] O=C(CSc1ncccn1)N1CCN(C(=O)CSc2ncccn2)CC1
    -0.32	0.57

Continuation:
nr	structure	KCNQ2 pot baseline	KCNQ2 pot
91	CN(c1ccc(C(=O)NC2CCCC2)cc1)S(=O)(=O)c1ccccc1	0.15	0.5
92	Cc1ccc(/C(O)=C2\C(=O)C(=O)N(C)C2c2cccc([N+](=O)[O-])c2)cc1 (centres undefined)	0.18	0.19
93	CN1CCN(c2ccccc2NC(=O)COc2ccc(C3CCCCC3)cc2)CC1	-1.4	0.06
94	Cc1ccc(N2CN(CCc3ccccc3)CNC2=S)cc1	1.7	0.41
95	CCOC(=O)c1sc(NC(=O)Cc2ccc(F)cc2)nc1C	-1.4	0.17
96	CCOC(=O)C1C(CC)NC(=S)NC1(C)O (centres undefined)	-0.2	1.2
97	C/C(CC(=O)NCc1ccco1)=N\NC(=O)COc1ccc(C)cc1	1.3	0.41
98	Cc1ccc(CNC(=O)C(CCC(N)=O)NC(=O)OCc2ccccc2)cc1 (centres undefined)	1.1	0.43
99	O=C(C(c1ccccc1)c1ccccc1)N1CCN(Cc2ccccn2)CC1	0.25	1.1
100	CCCCN(C(=O)CNC(=O)c1cccs1)C(C(=O)NC1CCCCC1)c1cccnc1 (centres undefined)	0.05	0.09
101	Cc1occc1C(=O)Nc1cccc(/C=C/C(=O)O)c1	-1	2
102	Cc1cc(NC(=O)CC2Oc3ccccc3NC2=O)ccc1Br (centres undefined)	-0.66	0.54
103	COc1ccc(C(=O)N/N=C/c2cc3ccccc3[nH]c2=O)cc1	-0.2	0.33
104	CC(C)c1nnc(SCC(=O)NCc2ccco2)n1C	-1.9	1.8
105	C=CCn1c(CSCc2ccccc2)nnc1SCC(=O)NCc1ccccc1	nt	-5.5

Further entries follow.
nr	structure	KCNQ2 pot baseline	KCNQ2 pot
106	C=CCNC(=S)N/N=C/c1cn(C)c2ccccc12	-0.52	1.2
107	Cc1cc(-c2nn(-c3ccccc3)cc2/C=C2\SC(N)=NC2=O)ccc1OC(C)C	-0.18	0.17
108	CCOc1ccc(C(CC(=O)O)NC(=O)COc2ccccc2OC)cc1OC (centres undefined)	1.4	0.08
109	CCCCN(C)S(=O)(=O)c1ccc(C(=O)N=c2sc3cc(NC(C)=O)ccc3n2C)cc1	-2.6	0.52
110	O=C(NCCOC(=O)c1ccc(S(=O)(=O)N2CCOCC2)cc1)c1cccnc1	1.8	0.81
111	COc1ccc(/C=C/c2nc(C#N)c(NCCN(C)C)o2)cc1OC	-3	0.94
112	COC(=O)C1=NN(C(=O)c2ccc(Cl)cc2)C(O)(c2ccccc2)C1 (centres undefined)	0.05*	7.2*
113	COc1cccc(C(=O)O/N=C(\N)c2ccncc2)c1	0.32	0.21
114	CCOc1ccc(N=Cc2c(O)cc(C)oc2=O)cc1	0	2
115	COc1cc(C(=O)NCC(=O)n2nc(C)cc2C)cc(OC)c1OC	0.38	0.32
